# Screening data (PubChem)
# NPR1 antag = antagonists of human natriuretic peptide receptor Npr1 | Potency, µM (series often up to 46.3 µM), for inactives: at the top dose activity change, negative = inhibition, most hits filed as inhibitors | HEK293 hNpr1 GloSensor cGMP, ANP-stimulated luminescence | AID 1347048 | 76,000 tested, 1.6% active; active = well fitted inhibition curve with a large enough effect; inconclusive = small, poorly fitted or top-dose-only effect; inactive = no such curve, though single readings can be large or run the other way;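 also: nearly all actives have a fitted effect of over 60% in size; nearly all hits also lower the signal before the agonist is added; a reference antagonist and vehicle were the controls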
# Target sequence (P16066 whole entry, looked up): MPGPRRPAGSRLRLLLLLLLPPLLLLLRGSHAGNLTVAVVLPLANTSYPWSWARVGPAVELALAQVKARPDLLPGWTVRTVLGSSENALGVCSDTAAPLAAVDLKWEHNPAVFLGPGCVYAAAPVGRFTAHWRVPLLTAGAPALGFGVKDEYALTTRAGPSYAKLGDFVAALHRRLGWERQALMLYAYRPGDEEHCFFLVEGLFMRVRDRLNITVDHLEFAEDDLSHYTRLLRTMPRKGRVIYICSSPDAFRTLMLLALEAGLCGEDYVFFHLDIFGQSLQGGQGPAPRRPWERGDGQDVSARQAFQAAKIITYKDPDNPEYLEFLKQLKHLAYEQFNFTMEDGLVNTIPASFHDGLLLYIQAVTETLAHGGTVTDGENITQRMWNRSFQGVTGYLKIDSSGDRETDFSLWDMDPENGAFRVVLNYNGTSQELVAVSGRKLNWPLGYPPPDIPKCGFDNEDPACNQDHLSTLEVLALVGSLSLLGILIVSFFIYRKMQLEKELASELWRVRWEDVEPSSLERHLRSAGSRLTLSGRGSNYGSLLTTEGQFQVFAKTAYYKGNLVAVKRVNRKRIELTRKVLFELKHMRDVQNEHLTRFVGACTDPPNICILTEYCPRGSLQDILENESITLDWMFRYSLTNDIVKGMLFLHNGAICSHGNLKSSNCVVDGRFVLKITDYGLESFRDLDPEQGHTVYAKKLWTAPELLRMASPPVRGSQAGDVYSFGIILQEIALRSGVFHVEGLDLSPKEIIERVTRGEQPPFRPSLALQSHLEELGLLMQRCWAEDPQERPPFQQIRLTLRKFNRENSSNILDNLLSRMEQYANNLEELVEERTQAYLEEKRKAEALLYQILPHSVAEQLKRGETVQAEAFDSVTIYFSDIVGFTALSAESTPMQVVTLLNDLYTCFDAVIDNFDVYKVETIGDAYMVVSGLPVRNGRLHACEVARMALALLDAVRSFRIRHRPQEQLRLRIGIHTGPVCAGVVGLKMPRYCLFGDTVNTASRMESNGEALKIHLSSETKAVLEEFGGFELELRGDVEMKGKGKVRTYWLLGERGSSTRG
#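 HEK293 cells stably expressing human Npr1 and cGMP GloSensor pGS-40F, loaded 2 h with 2% GloSensor reagent, given compound 30 min at room temperature. Luminescence read before and 20 min after 0.1 nM hNppA.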
# Numbers without * were called inactive; ? = inconclusive; [ ] = dose if it differs, or a comment. % is scaled to controls: 0 for no effect and ±100 for the full control effect; potency is read from the fitted curve at half-maximal effect.
molecule | NPR1 antag
CCOCc1nc(C2CCCN(C(=O)C(C)C)C2)no1 (stereo unspecified) | -10%
COc1cccc(CC(=O)N2CCN(c3cc(-c4cccs4)[nH]n3)CC2)c1 | 1%
Cc1nnn2c(C(=O)NC3CC3)cccc12 | ?
O=C(c1cc[n+]([O-])cc1)N1CCC(C2CCN(Cc3cccnc3)CC2)C1 (stereo unspecified) | -1%
COC(=O)[C@@H]1Cc2ncn(Cc3ccc(Cl)cc3)c2CN1S(=O)(=O)c1ccc(C#N)cc1 | -4%
CS(=O)(=O)N1CCC(OC2CCN(C(=O)c3cccc(Cl)c3)CC2)CC1 | 4%
CC1(C)C(=O)N(Cc2ccccc2F)[C@H]2CN(Cc3cccnc3)C[C@@H]2[S+]1(=O)[O-] | 5%[70.6 µM]
Cc1ccc2c(C(=O)NCc3ccc(C(F)(F)F)cc3)cc(NC(=O)C(C)C)cc2n1 | -3%
COc1ccc(NC(=O)N[C@H]2[C@H](O)[C@@H](Oc3ccccc3)[C@@H]3OC[C@H]2O3)cc1 | -2%[70.6 µM]
COCC(=O)N1CCC([C@H]2[C@@H](OC)C(=O)N2C(C)C)CC1 | -1%
O=C(COc1ccccc1)N1CCC(Oc2cnc3c(ccn3-c3cncnc3)c2)CC1 | -30%[70.6 µM]
COc1cc2c(cc1OC)C(C[C@H]1CN(C(=O)c3ccc(N(C)C)cc3)CC[C@H]1CC(=O)O)=NCC2 | -2%
Cc1cnc(C(=O)N2CCCN(S(=O)(=O)c3ccccc3)CCC(=O)NCC2)cn1 | 0%
COC(=O)[C@@H]1Cc2ncn(Cc3ccc(Cl)cc3)c2CN1C(=O)c1ccc(C#N)cc1 | 4%[70.6 µM]
Cc1nn(-c2ccccc2)c(C)c1[C@@H]1C=C[C@@H](NC(=O)CC(C)(C)CC(=O)O)C1 | 7%[70.6 µM]
COc1ccc(-c2cnc3n2CC(C(=O)NCCCN2CCN(C)CC2)CC3)cc1 (stereo unspecified) | 8%
O=c1ncn(CC2CC2)c2ccc(-c3ccc(F)cc3F)nc12 | 0%[70.6 µM]
N#Cc1ccc(C(=O)Nc2ccc3n(c2=O)C[C@H]2C[C@@H]3CN(C(=O)NC3CCCCC3)C2)cc1 | -6%
O=C1CCCCC(Cc2ccccc2)(C(=O)NCc2cccc(F)c2)N1 (stereo unspecified) | -7%
CCN(C(=O)CN1C(=O)NC2(CCC(C)CC2)C1=O)c1cccc(C)c1 (stereo unspecified) | 3%
CNC(=O)c1cc2cc(-c3c(C)noc3C)nc(-c3cnn(C)c3)c2o1 | -2%[70.6 µM]
COc1ccc(Nc2cc3c(cn2)CN(Cc2ccncc2)CCN3)cn1 | 0%[70.6 µM]
CC(C)NC(=O)C[C@@H]1C[C@H]2O[C@H](CNC3CCC(F)(F)CC3)[C@@H](O)[C@H]2O1 | 8%[70.6 µM]
COc1ccc(-c2onc(C)c2C(=O)NC2CCCc3ccccc32)cc1 (stereo unspecified) | -5%
CCOCC(=O)N1CCC2(CCC(=O)N(CC3CC3)CC2)CC1 | -1%
CC(C)N(Cc1cn(Cc2ccccc2)nc1-c1cc2ccccc2o1)CC1CCC(=O)N1 (stereo unspecified) | 0%
CCCCNC(=O)c1cccc2c1CCN2C(=O)Nc1ccc(C)cc1 | 1.4µM*
O=C1NCCCCCCN(Cc2ccncc2)[C@@H]2CN(C(=O)c3ccco3)CC[C@@H]12 | -1%
Cc1c(Cl)cc(C(=O)N(C)CCC2CCOCC2)cc1Cl | -3%
CN(Cc1ccccc1)C(=O)C[C@@H]1CCNC[C@@H]1Cc1cc(-c2ccccc2)on1 | -30%[70.6 µM]
CC(C)C(=O)Nc1ccc([C@H]2OCC(=O)N(Cc3nccn3C)[C@@H]2CO)cc1 | 2%[70.6 µM]
COc1ccc(C2(C(=O)N3CCC4(CC3)CC(N(C(C)=O)C3CC3)CCO4)CC2)cc1 (stereo unspecified) | -1%
COc1ccccc1OCCNC(=O)c1ccc2c(c1)C(O)CCCCCN2C (stereo unspecified) | -13%
O=C(NCCc1ccccn1)c1ccc(-c2nnc3ccc(NC(=O)C4CCC4)cn23)cc1 | 1%
CN1CCN([C@@H]2[C@H](O)[C@H](CO)O[C@@H]2CNC(=O)Nc2cccc(Cl)c2)CC1 | 9%
Cc1ccc(C(=O)NC[C@H]2O[C@@H](CC(=O)NCc3ccc(F)cc3)[C@H](O)[C@@H]2O)cc1 | -1%[70.6 µM]
Cc1nc(CNC(=O)c2cccc(S(=O)(=O)N3CCOCC3)c2)cs1 | 3%
COc1ccc(-c2cc(N3CCCC(NC(=O)c4ccccc4F)C3)n[nH]2)cc1 (stereo unspecified) | -17%
CCn1nc(C)c(CN2CCC(n3nccc3NC(=O)CCCc3ccccc3)CC2)c1C | 0%
COC(=O)[C@@H]1Cc2ncn(Cc3ccc(Cl)cc3)c2CN1S(C)(=O)=O | 3%[70.6 µM]
CCn1cc(C(=O)N2CCC(C3CCN(C(=O)NC)CC3)C2)cn1 (stereo unspecified) | 5%
COc1ccc(C(=O)N[C@@H]2CCC[C@@H]2C(=O)NCc2ccc(C)o2)cn1 | -3%
CS(=O)(=O)N1CC(C(=O)NCCc2ccncc2)C2(CCOCC2)C1 (stereo unspecified) | -6%
COC(=O)C1=C(C)N=C2SC=C(CC(=O)NC3CC3)N2C1c1cccc(OC)c1 (stereo unspecified) | -19%
Cc1cc(=O)n(CC(=O)N2CC[C@](C)(O)C(C)(C)C2)c2ccccc12 | 3%
CCCn1cc(-c2ccncc2)cc1C(=O)N1CCCCC1 | 4%
COCCCNc1ncnc2sc3c(c12)CCNC3 | 7%
CCc1nnc(NC(=O)C2CC(=O)N(c3n[nH]c4ccccc34)C2)s1 (stereo unspecified) | 1%
COc1ccc(CNC(=O)CC[C@H]2CNC(=O)[C@@H]3[C@@H](CCN3Cc3ccc(O)cc3)N2C)cc1 | -5%
CCc1ccccc1NC(=O)CN1C(=O)NC2(CCOCC2)C1=O | 7%

# Next section:
molecule | NPR1 antag
O=C(Cc1c[nH]c2ncc(-c3cccc(F)c3)cc12)NCc1cccnc1 | ?
Cc1noc(C)c1S(=O)(=O)N1CCCOCCNC(=O)[C@@H]2CCCC[C@@H]21 | 5%
O=C(NC1C=CS(=O)(=O)C1)c1ccc2nc(-c3ccc(F)cc3)cn2c1 (stereo unspecified) | 4%
O=[S+]([O-])(Nc1cccnc1)c1ccc2c(c1)OCCN(Cc1ccccc1)C2 | ?
NC(=O)CN1C(=O)[C@@H]2CN(C(=O)c3ccccc3)CCN2C1=O | -2%[70.6 µM]
C[S+](=O)([O-])NCCn1ccc2cc(OC3CCN(c4ncc(F)cn4)CC3)cnc21 | 22µM*
O=C([C@H]1O[C@H](CCN2CCOCC2)CC[C@@H]1O)N1CCN(c2ccc(F)cc2)CC1 | 2%[70.6 µM]
CCc1ccccc1NC(=O)N1CCC2(CC1)C(=O)N(CC(=O)NC(C)C)CN2c1ccccc1 | -8%
Cc1cc(C2CCC2)nc(N2C[C@@H](C)[C@@](C)(O)C2)n1 | 6%
Cc1ccc(CN2CC[C@H](c3nc4ccc(C)cc4[nH]3)C2)cc1 | -14%[70.6 µM]

# In another format: entries from further up
NPR1 antag,structure
-8%,CCc1ccccc1NC(=O)N1CCC2(CC1)C(=O)N(CC(=O)NC(C)C)CN2c1ccccc1
-14%[70.6 µM],Cc1ccc(CN2CC[C@H](c3nc4ccc(C)cc4[nH]3)C2)cc1

# Later entries
molecule | NPR1 antag
COCC1CN(C2CCC2)CC12CCN(C(=O)c1ccco1)CC2 (stereo unspecified) | -19%
Cc1ccccc1CN1Cc2nc(-c3ccsc3)ccc2OCC1=O | -18%[70.6 µM]
CC(C)(C)C1CCc2[nH]nc(C(=O)N3CCc4nn(CC#N)c(=O)n4CC3)c2C1 (stereo unspecified) | -7%
Cc1cccc(-c2ccc3c(c2)C(=O)N2CC[C@H](NC(=O)c4cccs4)C[C@H]2C(=O)N3)c1C | ?
COCCn1cc2c3c(cccc31)CN(C(=O)CCCc1ccccc1)CC2 | -29%
CN1C[C@@H](NC(=O)c2cccnc2)C[C@H]1c1nc(-c2ccncc2)no1 | 7%[70.6 µM]
O=C(NCC1CCN(c2cc(-c3ccccc3)[nH]n2)CC1)c1ccc[nH]c1=O | 1%
O=C1CN(C(=O)CCC(=O)N2CCC(CCOc3ccccc3F)C2)c2ccccc2N1 (stereo unspecified) | -14%
COc1ccc(CN2CCn3c(nn(-c4ccc(F)cc4F)c3=O)C2)cc1 | -14%
CC(C)C(=O)N1CCC(Cc2ccc(C(N)=O)cc2)CC1 | 3%
Cn1cnc(C(=O)N2CCC3(CC2)CC(N2CCN(c4ccccc4)CC2)CCO3)c1 (stereo unspecified) | 2%
OC[C@@H]1O[C@H](CN(Cc2cccc(Cl)c2)Cc2cccc(Cl)c2)C(N2CCOCC2)[C@@H]1O (stereo partly specified) | 1%
COc1ccccc1OC1(C(=O)O)CCN(C(=O)CCC2CC2)CC1 | 18%
CCC1=C(C(=O)OC)C(c2ccc(C)cc2C)N2C(CC(=O)N3CCCC3)=CSC2=N1 (stereo unspecified) | ?
COc1ccc(-c2cc(N3CCCN(C(=O)c4ccccc4OC)CC3)n[nH]2)cc1 | -2%
CC(=O)N1CCn2c(nnc2-c2ccccc2)C1 | 0%[70.6 µM]
N#Cc1cccc(NC(=O)CCn2ccn3nc4c(c3c2=O)CCCC4)c1 | -2%
Cc1ccc(C(=O)N2CCCCCCNC(=O)[C@@H]3C[C@@H](c4nc(-c5cccnc5)no4)C[C@@H]32)s1 | 0%
COC[C@@]12CC[C@@H](N3CCOCC3)C[C@H]1CCN(c1nccc(NC(C)C)n1)C2 | 4%
CC(=O)NC1(C)CCN(Cc2ccc(Nc3ccccc3)cc2)C1 (stereo unspecified) | 2%[70.6 µM]
Cc1ccc(NC(=O)N2CCC(CCNC(=O)CCc3ccccc3)CC2)cc1F | -16%
O=C(c1ccc2cc[nH]c2c1)N1CCC2(CC1)N=C(c1ccc(Cl)cc1)NO2 | 11µM*
COc1ccc(-n2c(=O)c3c(n2Cc2ccccc2)CN(C(C)=O)CC3)cc1 | 5%[70.6 µM]
CC1CCN(S(=O)(=O)C2CCS(=O)(=O)C2)CC1 (stereo unspecified) | -1%
CCC[C@@H]1CN(c2nc(SC)ncc2C(=O)OCC)C[C@H]1N(C)C | -5%
CCC(C)Cc1nccc(C2(c3ccccc3Cl)CCNCC2)n1 (stereo unspecified) | -4%
O=C(NC1(c2cc(F)ccc2F)CC1)[C@H]1CCC[C@H](O)C1 | 0%
CCCNC(=O)N(C1CCOCC1)C1CCN(S(=O)(=O)c2cccnc2)CC1 | 0%
O=C(Nc1cccc(-c2ccc(F)cc2)c1)C1CCCN1C(=O)c1ccncc1 (stereo unspecified) | 2%
O=C(NCC1CCCO1)c1csc(N2CCN(c3ccccc3F)CC2)n1 (stereo unspecified) | -12%

# Printed as active in NPR1 antag, among the entries above:
molecule | NPR1 antag
CCCCNC(=O)c1cccc2c1CCN2C(=O)Nc1ccc(C)cc1 | 1.4µM*
C[S+](=O)([O-])NCCn1ccc2cc(OC3CCN(c4ncc(F)cn4)CC3)cnc21 | 22µM*
O=C(c1ccc2cc[nH]c2c1)N1CCC2(CC1)N=C(c1ccc(Cl)cc1)NO2 | 11µM*

# Next part
molecule | NPR1 antag
O=C(c1ccco1)N1Cc2[nH]cnc2C[C@H]1c1nc(-c2ccc(F)cc2)no1 | -22%[70.6 µM]
Cn1nc(C2CCN(C(=O)c3ccoc3)CC2)c2c1CCOC2 | 5%
Cc1cnc(C(=O)N2[C@@H]3CC[C@H]2CC(NC(=O)c2ccncc2)C3)cn1 (stereo partly specified) | 9%
CCCn1ccc2sc(C)c(C(=O)NCCC3=CCCCC3)c2c1=O | -15%
COCCn1ncc(N2CCCC(CC(=O)NCc3cccc(Cl)c3)C2)cc1=O (stereo unspecified) | 0%
CCc1nc(N2CCc3ccccc3C2)ncc1C(=O)O | -22%
N#Cc1ccc(NC(=S)N[C@H]2CO[C@H]3[C@@H]2OC[C@H]3OC(=O)Nc2ccccc2)cc1 | 22µM*
COCCNc1ncnc2c1CN(c1ccc(OC)cc1)C(=O)CN2C | 8%
CNC(=O)[C@@H]1CN(C(=O)c2cc(C)n(CCOC)c2C)C[C@H]1COC | 1%
CNC(=O)c1cc(S(=O)(=O)N2CCc3c(nc[nH]c3=O)C2)cs1 | 2%
O=[S+]([O-])(c1cccc(C(F)(F)F)c1)N1CCCC2(CC(Cc3ccccc3)=NO2)C1 (stereo unspecified) | 7%
CN(Cc1ccccc1)C(=O)CCc1ccnc(N2CCOCC2)c1 | 6%
O=C([C@H]1C[C@@H](F)CN1S(=O)(=O)c1ccc(F)c(Cl)c1)N1CCOCC1 | -3%
O=C(NCC1(COc2cnccn2)C[C@@H](O)[C@@H](O)C1)C1CCCC1 (stereo partly specified) | 1%[70.6 µM]
O=C1CCC2(CNC(=O)c3ccoc3)CCC=C2N1 (stereo unspecified) | 13%
COc1cc(NC(=O)c2ccc3c(c2)N(C)C2CCCN2C3=O)cc(OC)c1 (stereo unspecified) | -8%
COCCN1CCCCCC(O)c2cc(C(=O)NCc3ccccc3OC)ccc21 (stereo unspecified) | -12%
CC(NC(=O)c1ccc(OC2CCN(S(=O)(=O)N(C)C)CC2)cc1)c1ccc(F)cc1 (stereo unspecified) | -20%
COCCNC(=O)c1noc(-c2ccccc2F)n1 | 1%
CC(=O)NCC(=O)N1CC[C@@H]2COCCN(Cc3cccnc3)[C@@H]2C1 | -3%
Cn1nc(OC(C)(C)C(=O)NCCOc2ccccc2)c2cc(CN3CCCC3)ccc21 | 4%[70.6 µM]

# A portion of the library; the hit share may differ from the screen's.
